Assay outcomes as filed in PubChem.
2A Renilla – Primary qHTS Assay for Foot and Mouth Disease Virus Antivirals against NCGC Sytravon and CBC Compound Libraries: Renilla Luciferase Signal; Potency, µM (series often up to 57.5 µM), for inactives: at the highest dose signal change, negative = less light; AID 1745857, 2022; HEK cells with a luciferase reporter of 2A StopGo recoding; 0.32% of 120,000 active; active means well fitted falling curve with a large enough effect; inconclusive means small, poorly fitted or top-dose-only effect; inactive means no such curve, though single readings can be large or run the other way; further: nearly all actives have a fitted effect of over 55% in size; overnight with compound
StopGo FLuc – Primary qHTS Assay for Foot and Mouth Disease Virus Antivirals against NCGC Sytravon and CBC Compound Libraries: Firefly Luciferase Signal | HEK cells with a luciferase reporter of 2A StopGo recoding | Potency, µM (highest dose often 57.5 µM), for inactives: at the highest dose signal change, negative = less light | 0.23% of 120,000 active; active = well fitted falling curve with a large enough effect; inconclusive = small, poorly fitted or top-dose-only effect; inactive = no such curve, though single readings can be large or run the other way; further: nearly all actives have a fitted effect of over 60% in size; overnight with compound
* marks the source's active call; other numbers are inactive results; ? = inconclusive; [ ] = dose if it differs, or a comment. On the % scale 0 is the no-effect control and ±100 the full control effect; potency means the concentration at half of the fitted maximal effect. Not all compounds are listed; rates above refer to the full screens.

SMILES,2A Renilla,StopGo FLuc
COc1ccc(NC(=O)c2ccco2)cc1NC(=O)C(C)(C)Oc1ccc(Cl)cc1,-4.1%,?
CNC(=O)NC(=O)CN1CCCC(c2nc3ccccc3o2)C1 (centres undefined),-4.0%,-3.0%
CCc1ccccc1NC(=O)CSc1nc(C)c(C(=O)Nc2ccccc2)c(-c2ccc(Cl)cc2)c1C#N,-6.5%,-9.2%
Cc1ccc(NC(=O)Cn2c(=O)n(CCc3ccccc3)c(=O)c3c4c(sc32)CCCC4)cc1C,-1.4%,-5.1%
Cc1ccc(O)c(-c2n[nH]c3c2C(c2ccc(F)cc2)N(Cc2ccco2)C3=O)c1 (centres undefined),9.3%,-7.8%
Cc1cccc(Cn2cccc(C(=O)Nc3cc(C)on3)c2=O)c1,-9.2%,4.3%
CC(C)Sc1ncc(Cl)c(C(=O)Nc2nc3ccc(S(C)(=O)=O)cc3s2)n1,-0.2%,-9.2%
CC(CNC(=O)Cn1ncc2ccccc2c1=O)c1ccccc1 (centres undefined),2.4%,15.7%
CCN(CC)C(=O)c1sc2c(c1C)c(=O)n(Cc1ccccc1)c(=O)n2Cc1c(C)cc(C)cc1C,0.0%,-20.9%
COc1ccccc1CNC(=O)CCc1c(C)nc2cc(-c3ccc(Cl)cc3)nn2c1C,-8.6%,-16.8%

Quoted at random: two entries already listed
SMILES,2A Renilla,StopGo FLuc
CNC(=O)NC(=O)CN1CCCC(c2nc3ccccc3o2)C1 (centres undefined),-4.0%,-3.0%
CC(C)Sc1ncc(Cl)c(C(=O)Nc2nc3ccc(S(C)(=O)=O)cc3s2)n1,-0.2%,-9.2%

Following part:
SMILES,2A Renilla,StopGo FLuc
CC(C)CN(CCCNC(=O)c1cc(-c2cccs2)nc2ccccc12)CC(C)C,-4.0%,-2.4%
COc1cccc(N2CCN(C(=O)CCCn3c(=O)[nH]c4ccc(Br)cc4c3=O)CC2)c1,-16.1%,-23.3%
Cn1c(=O)[nH]c(=O)c2c1nc(SCc1ccc(F)cc1)n2CCCc1ccccc1,-1.1%,1.1%
COCc1cccc(C(=O)O)c1,2.1%,-1.6%
COc1ccc(-c2ccc(CCC(=O)O)n2-c2ccc(Cl)cc2C)cc1,-12.4%,-5.1%
CNC(=O)Cn1ccc2cc(S(=O)(=O)N3CCCCC3)ccc21,23.1%,4.1%
O=C(Nc1cccc(Cl)c1)N1CCN(c2cc(=O)n3nc(-c4ccco4)sc3n2)CC1,-6.5%,12.3%
COCCNc1ccc(-c2nn(C)c(=O)c3ccccc23)cc1[N+](=O)[O-],5.1%,11.6%
COc1cc(Cl)c(NC(=O)CN2C(=O)c3cccnc3Sc3ccccc32)c(OC)c1,10.2%,0.0%
Cc1nnc(SCC(=O)NCc2cccc(F)c2)c2nn(-c3ccccc3)c(C)c12,-11.7%,6.5%

Going on with the list.
SMILES,2A Renilla,StopGo FLuc
CC(C)C12CN3CC(C(C)C)(CN(C1)C3c1c[nH]c3ccccc13)C2=O (centres undefined),-3.3%,-12.7%
O=C(Nc1cccc2cccnc12)c1ccc(-c2cccc(Cl)c2)o1,-7.8%,-1.2%
COc1ccc(-n2nnnc2C2CCN(S(=O)(=O)c3ccc(NC(C)=O)cc3)CC2)cc1,-9.6%,-21.5%
COc1cccc(C2CCCN2Cc2cc(=O)oc3c(C)c(O)ccc23)c1 (centres undefined),0.0%,-14.2%
O=C(Nc1nc2ccccc2[nH]1)c1ccc[n+]([O-])c1,14.6%,81.4%[activator]
CC(C)NC(NC(=O)c1cccs1)C(Cl)(Cl)Cl (centres undefined),-1.0%,3.9%
COc1ccc(OC)c(C(=O)CN2C(=O)N(c3ccc(C)cc3)S(=O)(=O)c3ccccc32)c1,-8.8%,-11.1%
Cc1cc(N2CCN(Cc3nc(C(C)C)no3)CC2)nc(C(C)C)n1,?,?
C=CCOc1cccc(NC(C)=O)c1,-7.2%,17.0%
Cc1c(-c2ccc(Cl)cc2)nc2ccccc2c1C(=O)NC1CCCCCCC1,44.2%[activator],13.2%

Continuation:
SMILES,2A Renilla,StopGo FLuc
O=C(C1CCN(S(=O)(=O)Cc2ccccc2)CC1)N1CCN(c2ccccc2F)CC1,-5.7%,-10.4%
Cc1ccc(-n2cc3c(c2-c2ccccc2)c(=O)n(C)c(=O)n3C)c(C)c1,20.6%,-0.1%
O=C(O)C(Sc1nc(-c2ccccc2)cc(C(F)(F)F)n1)c1ccccc1 (centres undefined),-2.4%,-7.5%
COc1ccc2c(COC(=O)c3ccccc3C)cc(=O)oc2c1,43.4%[activator],226.6%[activator]
CC(=O)c1cccc(NC(=O)C2CCN(c3nc4ccccc4nc3OC(C)C)CC2)c1,-20.2%,?
CN(CC(=O)NC1CCCC1)Cc1cccc(C#N)c1,4.2%,10.2%
Cn1c(=O)c2c(nc(SCC(=O)NC(c3ccccc3)c3ccccc3)n2C)n(C)c1=O,-0.9%,8.3%
O=C(Cn1c(=O)[nH]c2ccccc2c1=O)N1CCCCCC1,-7.5%,-0.7%
O=C(c1ccc2c(c1)OCO2)N1CCC(c2nc3c(nnn3Cc3cccc(Cl)c3)c(=O)[nH]2)CC1,1.7%,-14.1%
COc1cccc(CNC(=O)CCc2c(C)c3cc4c(C)coc4cc3oc2=O)c1,30.9%[activator],13.5%

Following part.
SMILES,2A Renilla,StopGo FLuc
O=C(COc1ccc(F)cc1F)NC1CCCN(c2ncccn2)C1 (centres undefined),-1.5%,58.6%[activator]
CC(=O)c1c(Nc2ccc(Cl)cc2)oc(C)cc1=O,13.1%,0.0%
COc1cccc(/C=N/O)c1O,-9.8%,18.5%
Cc1ccc(S(=O)(=O)C2(C(=O)Nc3ccc(C)c(Cl)c3)CC2)cc1,14.3%,23.4%
CCOC(=O)c1c(S(=O)(=O)NCC(=O)N(C)Cc2ccccc2)c(C)n(C)c1C,80.6%[activator],8.6%
CC(C)(C)C(=O)/C=c1/[nH]c(=O)/c(=C/c2ccc(F)cc2F)s1,11.6%,0.0%
O=S(=O)(NCc1ccccc1Cn1cccn1)c1ccc(F)cc1F,50.1%[activator],5.0%
CN(Cc1ccco1)C(=O)c1cc(-c2ccncc2)nc2ccccc12,43.4%[activator],13.0%
c1cncc(-c2nc(NC3CC3)c3ccccc3n2)c1,9.5%,21.1%
COc1cccc(Cn2c(=O)n(-c3cccc(Cl)c3C)c(=O)c3c4c(sc32)CN(C(C)=O)CC4)c1,18.0%,-30.5%

(listing goes on)
SMILES,2A Renilla,StopGo FLuc
CCc1ccc(S(=O)(=O)Nc2cccc(-c3ccc(N4CCCCC4)nn3)c2)s1,121.6%[activator],123.3%[activator]
CCCNC(=O)c1cc(-c2cccnc2)nc2ccccc12,10.5%,9.9%
Cc1cccc(-c2nc3scc(CCNS(=O)(=O)c4ccc(F)c(C(F)(F)F)c4)n3n2)c1,-8.3%,-13.2%
O=c1c(N2CCN(Cc3ccccc3)CC2)csc2ccc(Cl)cc12,15.0%,0.0%
CN(C)C(=O)CN1CCN(C(=O)c2cc(-c3cccnc3)nc3ccccc23)CC1,10.3%,15.2%
COc1ccc(Cl)cc1Nc1sc(C(=O)c2ccccc2)c(N)c1C(=O)Nc1ccccc1,-6.5%,-18.5%
O=C(/C=C/c1cccc(C(F)(F)F)c1)N1CCN(C(=O)C2CC2)CC1,-7.1%,2.1%
COc1ccc(NC(=O)c2nnn(Cc3ccccc3C)c2N)c(OC)c1,22.3%,-1.7%
C=CCN(CC=C)C(=O)C1CCN(C(=O)c2cccc(F)c2)CC1,18.3%,92.4%[activator]
COCCCNC(=O)c1cc2cc(Cl)ccc2nc1C,-5.2%,4.3%

Additional results
SMILES,2A Renilla,StopGo FLuc
Cc1noc(C(C)N2CCN(C(=O)Cc3ccccc3)CC2)n1 (centres undefined),-4.9%,-3.8%
O=C(Cn1cccc1-c1nc(-c2ccc3c(c2)OCO3)no1)Nc1ccc(F)cc1,7.5%,22.7%
Cc1ccc(NC(=O)c2nc(S(C)(=O)=O)ncc2N(Cc2cccc(F)c2)Cc2ccco2)cc1C,12.9%,-19.0%
COc1ccc(NC(=O)C2CCCN(C(=O)c3cnn(-c4ccccc4)c3-n3cccc3)C2)cc1 (centres undefined),?,?
CCOC(=O)C(NC(=O)/C=C/c1c(F)cccc1Cl)C(=O)OCC,12.3%,12.1%
Cc1cccc(N2CCN(C(=O)c3ccc4c(c3)c(C)c(C)n4C)CC2C)c1 (centres undefined),-10.9%,-19.2%
N#CC1=C(N)Oc2nc(SCc3ccccc3Cl)nc(N)c2C1c1cccc(F)c1 (centres undefined),?,?
O=C(Cn1cc(SCc2ccc(C(F)(F)F)cc2)c2ccccc21)N1CCCC1,-2.5%,96.1%[activator]
S=C(NCc1ccccc1)Nc1ccc(Cl)c(Cl)c1,-2.5%,-15.6%
O=C(Nc1cccc(NC(=O)c2ccccc2F)c1)c1ccccc1,0.0%,18.2%

Among those listed so far, 7 have a thiophene ring, fused or not.
SMILES,2A Renilla,StopGo FLuc
Cc1ccc(NC(=O)Cn2c(=O)n(CCc3ccccc3)c(=O)c3c4c(sc32)CCCC4)cc1C,-1.4%,-5.1%
CCN(CC)C(=O)c1sc2c(c1C)c(=O)n(Cc1ccccc1)c(=O)n2Cc1c(C)cc(C)cc1C,0.0%,-20.9%
CC(C)CN(CCCNC(=O)c1cc(-c2cccs2)nc2ccccc12)CC(C)C,-4.0%,-2.4%
CC(C)NC(NC(=O)c1cccs1)C(Cl)(Cl)Cl (centres undefined),-1.0%,3.9%
COc1cccc(Cn2c(=O)n(-c3cccc(Cl)c3C)c(=O)c3c4c(sc32)CN(C(C)=O)CC4)c1,18.0%,-30.5%
CCc1ccc(S(=O)(=O)Nc2cccc(-c3ccc(N4CCCCC4)nn3)c2)s1,121.6%[activator],123.3%[activator]
COc1ccc(Cl)cc1Nc1sc(C(=O)c2ccccc2)c(N)c1C(=O)Nc1ccccc1,-6.5%,-18.5%

Going on with the list:
SMILES,2A Renilla,StopGo FLuc
CCOc1ccc(-c2nnc(SCC(=O)Nc3cc(F)ccc3F)o2)cc1,-5.5%,26.2%
O=C(Nc1ccc(OCc2cc(=O)n3ccccc3n2)cc1)c1ccccc1Cl,-9.2%,3.6%
CCN(Cc1ccccc1)C(=O)Cn1c(=O)n(-c2ccc(Cl)cc2)c(=O)c2c(C)c(C(=O)N(C)C)sc21,-9.8%,-23.4%
Cc1cc(S(=O)(=O)Nc2ccc(Cl)c(C(F)(F)F)c2)sc1C(=O)O,67.9%[activator],-9.8%
Cc1ccc2c(=O)c(C(=O)c3ccccc3)cn(CC(=O)NCc3ccccc3)c2n1,45.8%[activator],23.1%
O=C(Nc1ccc(Br)cc1)c1cc(-c2cccnc2)nc2ccccc12,-0.1%,-2.1%
CS(=O)(=O)N1CCC(NS(=O)(=O)c2cccc(Cl)c2)CC1,39.5%[activator],-4.7%
CCOc1ccc(-c2cn3c(n2)sc2cc(C(=O)NCCc4ccc(OC)c(OC)c4)ccc23)cc1,-21.1%,3.7%
CC(C)C(NC(=O)CSc1nc2cc([N+](=O)[O-])ccc2o1)c1ccccc1 (centres undefined),-12.8%,-10.0%
COc1ccc(C(=O)NC2CCCCNC2=O)cc1OC (centres undefined),-10.0%,4.9%

(more compounds)
SMILES,2A Renilla,StopGo FLuc
COc1ccc(-c2nc(SCC(=O)Nc3ccc4c(c3)OCCO4)c(-c3ccc(F)cc3)[nH]2)cc1OC,37.8%[activator],20.7%
Cc1nn2c(=O)cc(COC(=O)COc3ccc(F)cc3)nc2s1,2.0%,-13.1%
COc1ccc(CNC(=O)c2cnc3sc(N4CCCC4)nn3c2=O)c(OC)c1,-6.8%,-0.4%
Cc1ccc(C(O)CNC(=O)Nc2ccc(C)cc2C)cc1 (centres undefined),1.4%,42.9%[activator]
O=C(/C(=C\OCc1ccc(Cl)cc1)Cc1ccc(Cl)cc1)c1ccccc1,-26.8%,-19.6%
COc1cccc(CNC(=O)Cc2csc3ccccc23)c1OC,0.0%,19.7%
Cc1cccc(C)c1-n1nnnc1C1(Nc2ccccc2)CCCC1,92.4%[activator],2.1%
O=C(Nc1c(NC2CCCC2)c2ccccc2oc1=O)c1ccc(Br)o1,7.3%,25.2%
CNS(=O)(=O)c1cn(CC(=O)Nc2ccc(C(C)=O)cc2)cc1S(=O)(=O)NC,56.9%[activator],-11.9%
O=C1CC2(C(=O)N(CC3CCCCC3)c3ccccc32)c2cnn(-c3ccccc3)c2N1 (centres undefined),-18.0%,?

(listing goes on)
SMILES,2A Renilla,StopGo FLuc
CCN(C(=O)Cn1c(SCC(=O)NCc2ccccc2)nc2ccccc21)c1cccc(C)c1,86.2%[activator],73.7%[activator]
O=C(CSC1=Nc2ccccc2C2=NC(Cc3ccccc3)C(=O)N12)Nc1ccccc1 (centres undefined),-7.2%,?
O=C(NCc1noc2ccccc12)N1CCN(c2ccccc2F)CC1,11.9%,37.2%[activator]
COc1ccc(OCC(O)CN2CCN(c3ncccn3)CC2)cc1 (centres undefined),0.6%,3.6%
C=C(C)CNC(=S)N/N=C/c1cccc(C(F)(F)F)c1,13.9%,32.2%
Cc1ccc(S(=O)(=O)Cc2nc(-c3ccc(C(=O)NCCN(C)C)cc3)oc2C)cc1,10.4%,-6.0%
CCOc1ccc(-c2nonc2NC(=O)c2oc3cc(Br)ccc3c2C)cc1,-1.8%,-7.0%
CCCNC(=O)c1cc(=O)c2cc(Cl)ccc2o1,15.6%,0.0%
C#CC(C)(CC)OC(=O)c1ccccc1C(=O)O (centres undefined),-5.0%,-9.8%[11.5 µM]
CCOc1ccc(C2Nc3c(C)cccc3-c3cc(C)nn32)cc1 (centres undefined),-8.9%,-3.1%
CCN(C(=O)C(C)S(=O)(=O)Cc1ccc(F)cc1Cl)c1ccccc1 (centres undefined),1.9%,-5.7%
